From PubChem BioAssay
D2 ag: Beta-Arrestin HTS for Positive Allosteric Modulators of the Human D2 Dopamine Receptor: Agonists | AID 624465, 2012 | actives 0.084% (n = 360,000) | DiscoveRx PathHunter D2 beta-arrestin, luminescence, 90 min; 100% = 57 uM dopamine signal | activation, % (test concentration not listed); in the data active = activation above about 40%; inconclusive = about 15% to 40%; inactive = below about 15%; also: compound concentration not given in the record; the text of the record calls up to 30% inactive
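Agonist mode: compounds alone added to overnight-plated D2 PathHunter cells for 90 min at 37 C, with 57 uM final dopamine (EC100) defining full response. Beta-arrestin recruitment detected by chemiluminescent reagent, read after 1 h at ambient temperature.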
CtBP-E1A blk: qHTS Assay for Inhibitors of the CtBP/E1A Interaction; CtBP / adenovirus E1A interaction (AlphaScreen); AlphaScreen GST-E1A/His-CtBP binding, 1536-well; hits give low values; control for the full effect not named in the record; activity change, % (test concentration not listed); actives 0.49% (n = 340,000); AID 651724, 2012; in the data active means activity change below about -65%; inconclusive means about -30% to -65%; inactive means above about -30%; also: % is scaled to controls: 0 for no effect and ±100 for the full control effect; compound concentration not given in the record
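GST-E1A and His-tagged CtBP (125 nM each as 5X stock) were preincubated with pin-transferred compound for 2 h at 37 °C in the dark, then glutathione donor and nickel acceptor beads were added for 1 h before AlphaScreen reading.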
Six1-Eya2 inh: qHTS Assay for Inhibitors of the Six1/Eya2 Interaction | AID 651725, 2012 | Homeobox protein SIX1 (Homo sapiens) + Protein phosphatase EYA2 (Homo sapiens), … | activity change, % (concentration not given with the values) | actives 0.56% (n = 360,000) | AlphaScreen GST-Six1/His-Eya2 binding, biochemical; hits give low values; control for the full effect not named in the record; in the data active = activity change below about -65%; inconclusive = about -30% to -65%; inactive = above about -30%; also: % is scaled to controls: 0 for no effect and ±100 for the full control effect
Target sequence (O00167 whole entry, looked up): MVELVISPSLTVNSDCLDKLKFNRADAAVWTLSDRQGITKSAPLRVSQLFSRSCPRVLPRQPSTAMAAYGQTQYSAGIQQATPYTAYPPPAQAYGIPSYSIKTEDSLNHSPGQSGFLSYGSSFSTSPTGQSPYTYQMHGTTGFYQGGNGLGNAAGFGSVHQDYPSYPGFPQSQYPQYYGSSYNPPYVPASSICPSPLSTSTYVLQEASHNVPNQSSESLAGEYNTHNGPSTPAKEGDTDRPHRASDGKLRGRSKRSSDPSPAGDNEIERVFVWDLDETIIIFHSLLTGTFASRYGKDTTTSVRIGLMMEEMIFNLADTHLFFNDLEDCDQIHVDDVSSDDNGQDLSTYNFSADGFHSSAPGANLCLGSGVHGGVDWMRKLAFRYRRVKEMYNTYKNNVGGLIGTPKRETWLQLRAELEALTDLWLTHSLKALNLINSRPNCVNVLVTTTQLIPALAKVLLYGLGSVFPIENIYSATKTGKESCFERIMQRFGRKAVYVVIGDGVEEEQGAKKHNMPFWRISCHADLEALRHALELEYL
Target sequence (Q15475 whole entry, looked up): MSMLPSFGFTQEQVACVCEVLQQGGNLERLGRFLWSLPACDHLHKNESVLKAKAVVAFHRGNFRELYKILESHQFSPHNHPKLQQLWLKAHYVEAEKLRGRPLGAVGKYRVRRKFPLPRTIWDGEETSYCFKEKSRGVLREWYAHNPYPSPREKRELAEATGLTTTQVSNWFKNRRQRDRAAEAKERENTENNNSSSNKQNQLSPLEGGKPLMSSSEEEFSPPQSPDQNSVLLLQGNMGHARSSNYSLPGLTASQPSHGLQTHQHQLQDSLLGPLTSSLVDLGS
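Six1/Eya2 binding was read as AlphaScreen signal after compounds were pinned into GST-Six1 plus His-tagged Eya2 (5X stock 250/500 nM) in pH 8.0 Tris/NaCl/TCEP buffer, beads added, then incubated 1 h, 37 C, dark.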
PINK1 modulator: A Quantitative High throughput Screen to Identify Chemical Modulators of PINK1 Expression | PINK1 immunofluorescence, high-content cytometry, 24 h | Potency, µM (series often up to 76.6 µM), for the others: at the top dose activation (PINK1 increase), hits mostly activators | actives 0.2% (n = 410,000) | AID 624263, 2012; active = well fitted activation curve with a large enough effect; inconclusive = small, poorly fitted or top-dose-only effect; inactive = flat fitted curve, though single readings scatter; cell line not stated here;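 also: potency is read from the fitted curve at half-maximal effect; % of control where 0% means no effect; nearly all actives have a fitted effect of over 65% in size; a mitochondrial uncoupler was the plate control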
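Readout is PINK1 immunofluorescence, quantified alongside mitochondrial, cell and nuclear markers by laser-scanning microplate cytometry. Cells from a stable line were exposed to compound titrations (5 concentrations) for 24 hours, with CCCP controls.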
D2 potentiator: Beta-Arrestin HTS for Positive Allosteric Modulators of the Human D2 Dopamine Receptor: Potentiators; D(2) dopamine receptor (Homo sapiens), P14416; actives 0.23% (n = 360,000); DiscoveRx D2 beta-arrestin cells, luminescence, 90 min; 100% = 57 uM dopamine signal; potentiation, % (concentration not given with the values); active = potentiation of 50% or more; inconclusive = 30% to 50%; inactive = 30% or less;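 also: compound concentration not given in the record; tested on top of an EC20 dose of dopamine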
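PathHunter D2 cells, attached overnight at 37 deg C, received compound in DMSO plus dopamine at EC20 (50 nM final) for 90 min at 37 deg C. Beta-arrestin recruitment was read as luminescence after 1 h with detection reagent at ambient temperature.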
Sfp inh: qHTS Assay for Inhibitors of Bacillus subtilis Sfp phosphopantetheinyl transferase (PPTase). 4'-phosphopantetheinyl transferase ffp (Bacillus subtilis), Q9F4F7. Biochemical Sfp PPTase activity, qHTS. Potency, µM, without a hit: max response, negative = inhibition, most hits filed as inhibitors. actives 3.5% (n = 310,000). AID 1490, 2009; active = well fitted inhibition curve with a large enough effect; inconclusive = small, poorly fitted or top-dose-only effect, or another doubt; inactive = no such curve, though single readings can be large or run the other way;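 also: the enzyme is Sfp with the accession as filed and its product quenches rhodamine fluorescence; potency is read from the fitted curve at half-maximal effect; 0% = enzyme reaction without inhibitor and -100% = no enzyme wells; top concentration of the series not given in the record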
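Buffer: 50 mM Hepes-Na pH 7.6, 10 mM MgCl2, 0.01% Nonidet P-40, 0.01% BSA. Enzyme 15 nM, pre-exposed to compound 15 min; substrates then added and fluorescence change tracked over 30 min.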
TRPV1 potentiator: HTS Assay for Compounds that Act as Potentiators of the Vanilloid Receptor 1 | AID 540277, 2011 | Transient receptor potential cation channel subfamily V member 1 (Homo sapiens), Q8NER1 | potentiation, % at 8.33 µM | TRPV1-expressing cells, Fluo-8 calcium influx, capsaicin EC20 potentiation; host cell line not named in the record; control for the full effect not named in the record | actives 0.02% (n = 320,000); active means potentiation above 80%; inconclusive means 30% to 80%; inactive means below 30%; also: 0% is about no effect
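TRPV1-expressing cells were cultured overnight at 35.5C and loaded with Fluo-8 calcium dye for 40 to 90 min at room temperature. After a 10 s baseline, compound was added and calcium influx was read kinetically for 3 min (ex 480/em 520 nm).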
The depositor's hits bear a star; ? = inconclusive; . = not tested or not shown; & = joins results of further samples; ! = not confirmed by another sample; [ ] = dose if it differs, or a comment. Not a hit list; overall some 3.7% were active at least once.

Below each SMILES: D2 ag, CtBP-E1A blk, Six1-Eya2 inh, PINK1 modulator, D2 potentiator, Sfp inh, TRPV1 potentiator
(1) COc1ccc(-n2cccc2/C=C2\C(=N)N3N=C(c4ccco4)SC3=NC2=O)cc1
 : -4.1, -10, -25, -0.6%, -15, -7%, 23
(2) COc1cc(/C=N/NC(=O)c2nnn(-c3nonc3N)c2C(C)C)ccc1O
 : 7.0, ., -2, -0.1%, 0, 15%, -23
(3) O=S(=O)(/N=C(/Nc1ccc(F)cc1F)c1ccccc1)c1ccccc1
 : -0.7, 2, 8, 0.5%, -1, 8%, -9
(4) CC1C(=O)N(Cc2cn(Cc3ccco3)nn2)CCS(=O)(=O)N1Cc1ccc(-c2ccc(F)nc2)cc1 (stereo not given)
 : -5.4, -25, -2, -0.3%, -3, ., .
(5) CCCCNC(=O)C1(C)CCCCN1C(=O)c1ccc(F)cc1Cl (stereo not given)
 : -3.6, 3, -2, -0.7%, -7, ., .
(6) CCCCN(CC)CCCNC(=O)c1cc2c(=O)[nH]c3ccccc3c2s1
 : -2.2, -5, -10, -0.7%&6.2%, -16, 2%, -25
(7) Cc1cc(S(=O)(=O)N2CCN(c3ncccn3)CC2)ccc1-n1cnnn1
 : -2.2, 1, 3, 0.7%, 1, 8%, -6
(8) COc1ccccc1NC(=O)c1nnn(CC(=O)Nc2cccc(SC)c2)c1N
 : -2.4, 0, 0, 3.4%[38.3 µM], -11, 17%, 7
(9) C/C(=N/NC(=O)CNS(=O)(=O)c1ccccc1)c1ccc(Br)cc1
 : -1.0, 10, 0, 11%, -7, 2%, 2
(10) COc1ccccc1CNC(=O)c1ccc(NS(C)(=O)=O)cc1
 : -0.7, 1, 7, -5.5%[38.3 µM], -17, 6%, -3
(11) COCC(C)NC(=O)CSc1nc2ccccc2n1CCc1ccccc1 (stereo not given)
 : -0.2, ., 3, -0.4%, -9, -18%, -33
(12) O=C1C=C(NS(=O)(=O)c2ccccc2)C(=O)c2ccccc21
 : 1.3, -16, -10, 0.6%, 4, ., .
(13) COc1ccc(N2C(=O)CCC(C(=O)N3CCN(c4ccccn4)CC3)C2c2ccc(F)cc2)cc1 (stereo not given)
 : -1.6, 4, -5, -1.4%, 0, 17%, -2
(14) CCOC(=O)c1cc(C(=O)NN)c(=O)[nH]c1C
 : -0.3, 3, 1, -1.2%, -1, 20%, 5
(15) CCCCC1=CC2=C(c3ccco3)C(=O)C(C)(OC(=O)c3ccc(OC)cc3)C(=O)C2=CN1CC(C)C (stereo not given)
 : 8.1, -4, -6, 4.4%, 6, 3.5µM*!, -35

The closing three records of the section before come first, to join the parts.
Below each SMILES: D2 ag, CtBP-E1A blk, Six1-Eya2 inh, PINK1 modulator, D2 potentiator, Sfp inh, TRPV1 potentiator
(13) COc1ccc(N2C(=O)CCC(C(=O)N3CCN(c4ccccn4)CC3)C2c2ccc(F)cc2)cc1 (stereo not given)
 : -1.6, 4, -5, -1.4%, 0, 17%, -2
(14) CCOC(=O)c1cc(C(=O)NN)c(=O)[nH]c1C
 : -0.3, 3, 1, -1.2%, -1, 20%, 5
(15) CCCCC1=CC2=C(c3ccco3)C(=O)C(C)(OC(=O)c3ccc(OC)cc3)C(=O)C2=CN1CC(C)C (stereo not given)
 : 8.1, -4, -6, 4.4%, 6, 3.5µM*!, -35
(16) COc1ccc2cc(C(c3nnnn3C3CCCCC3)N3CCCCCC3)c3nnnn3c2c1 (stereo not given)
 : 0.9, -6, -6, 2.1%, 5, ., .
(17) CS(=O)(=O)c1ccc(C(=O)OCC(=O)N2CCCc3ccccc32)cc1
 : 0.4, -1, -6, -1.6%, -3, ., 0
(18) Nc1ccc(C(=O)n2c3ccccc3c3ccccc32)cc1
 : 0.8, 13, -3, 7.8%, -4, 45µM*, 5
(19) Cc1ccc2nc(SCC(=O)Nc3nnc(SCC(N)=O)s3)[nH]c2c1
 : 1.9, -2, 0, 2.8%[38.3 µM], -5, 7%, -13
(20) O=C(CSc1ccc2nnc(-c3cccc(F)c3)n2n1)N1CCCc2ccccc21
 : -1.8, -8, ?, 3.5%, -14, -17%, -2
(21) O=C(COc1ccc(-n2cnnn2)cc1)Nc1ccc(Br)cc1F
 : -1.5, 7, 4, 0.4%, 6, ., .
(22) CSc1nc(N)n2nc(C(C)(C)C)cc2n1
 : -5.1, -2, 3, -0.7%, -10, 7%, -8
(23) O=C(Nc1nnc(SCc2ccc(F)cc2)s1)c1ccco1
 : -0.9, 3, 8, 2.8%, -6, -5%, 9
(24) Oc1ccc(Cl)cc1CNC1CCCCC1
 : -4.2, -13, -12, 0.0%, -7, ., .
(25) COc1cc(OC)c(C2NC(=O)CCC2[N+](=O)[O-])cc1OC (stereo not given)
 : -1.2, ., 2, 1.3%, -2, 10%, -17
(26) Cc1nc2ccccc2c(=O)n1NC(=O)c1cccnc1Cl
 : -18, 8, 0, 0.4%, -4, 6%, 5
(27) COc1cc(F)ccc1-c1cc(C(=O)NCc2cccc(Cl)c2)[nH]n1
 : 3.4, -4, -3, 0.5%, -13, ., .
(28) COc1ccc(Br)cc1CNc1ccccc1
 : -3.4, ., 3, 25%, -15, ?, -1
(29) CCCCCCOC(=O)c1ccc(NC(=O)c2cc(OC)c(OC)c(OC)c2Br)cc1
 : -3.2, 12, 8, 1.3%, -31, 29%, ?
(30) Cc1ccc(S(=O)(=O)NC2CCCCC2)cc1C(=O)N1CCC(C(N)=O)CC1
 : -2.0, ., 0, -0.8%, 0, ., -3

Next compounds follow.
Below each SMILES: D2 ag, CtBP-E1A blk, Six1-Eya2 inh, PINK1 modulator, D2 potentiator, Sfp inh, TRPV1 potentiator
(31) COc1ccc(NC(=O)CCNC(=O)C2CCN(S(=O)(=O)c3ccccc3)CC2)cc1OC
 : -0.1, 1, 2, 0.5%, -18, ., .
(32) O=C(CCCC(=O)N(c1ccc2c(c1)OCCO2)C(C(=O)NC1CCCCC1)c1ccc(Cl)cc1)Nc1ccccn1 (stereo not given)
 : -0.3, 6, 5, ., -7, 18%, 9
(33) CCc1nc2ccc(C(=O)N(CC)CCN(C)C)cn2c1N(C)Cc1cccs1
 : -3.9, -11, 3, -0.5%, -10, ., .
(34) CCCCOc1ccc(S(=O)(=O)NNC(=O)c2cc3ccccc3o2)cc1
 : -1.8, 0, -8, 5.7%, -11, -6%, -5
(35) Cc1ccc(C(=O)N2CCC3(CC2)Oc2ccc(Cl)cc2C(=O)C32CC(c3cccnc3)=NO2)s1 (stereo not given)
 : -3.2, 1, -2, 3.2%, -20, 0%, -11
(36) COc1ccc(CNC(=O)c2ccc(N3CCOCC3)c([N+](=O)[O-])c2)cc1
 : 0.2, 7, -5, 1.8%, -6, 11%, -11
(37) c1csc(-c2cn3c(n2)SCC3)c1
 : -0.7, 3, -2, 0.1%, -2, 79µM*, 0
(38) Cc1cc(C)cc(N(CC(=O)NC2CCCC2)C(=O)CCC(=O)Nc2nc(C)cs2)c1
 : 2.7, 0, -6, 1.8%, -11, 13%, 3
(39) COc1ccccc1NS(=O)(=O)c1cccc(C(=O)NCc2ccccn2)c1
 : -0.4, 6, 7, 3.9%, -4, 8%, 9
(40) COC(=O)COc1nsnc1N1CCOCC1
 : -1.8, 15, 0, 1.0%, -1, 6%, ?
(41) COc1ccc(NC(=O)CSc2nnc(CNC(=O)c3cccs3)o2)c(OC)c1
 : -4.1, 1, 3, -2.1%, 7, 3%, 6
(42) CCC(=O)Nc1cccc(C2=NOC3(C2)C[C@@H](C(N)=O)N(C(=O)c2cc([N+](=O)[O-])cc([N+](=O)[O-])c2C)C3)c1 (stereo not given in full)
 : 6.6, 2, 4, 0.1%, 13, 5%, -19
(43) CCOC(=O)C1CCN(C(=O)CCS(=O)(=O)c2ccc3c(c2)CCN3C(=O)CC)CC1
 : -3.1, -8, 5, -4.3%, -2, 10%, 4
(44) O=C(/C=C/c1ccccc1)N/C(=C/c1ccccc1)C(=O)N1CCOCC1
 : 0.3, 6, 6, 4.7%, -14, -10%, -8
(45) Cc1[nH]c2ccccc2c1C(=O)CN1C(=O)NC2(CCCCCC2)C1=O
 : 0.9, ., -4, 1.6%, 13, ., 4

Following part
Below each SMILES: D2 ag, CtBP-E1A blk, Six1-Eya2 inh, PINK1 modulator, D2 potentiator, Sfp inh, TRPV1 potentiator
(46) CCN(CC)C(=O)COC(=O)c1cc(-c2ccco2)nc2ccccc12
 : 0.9, 3, -13, 1.0%, 5, -8%, 11
(47) C=CCn1c(SCC(=O)Nc2sccc2C(N)=O)nc2ccc(Cl)cc2c1=O
 : 3.3, -9, 0, 5.0%, 10, 45µM*, 10
(48) Cc1cccc(-c2noc(-c3cc4ccccc4oc3=O)n2)c1
 : -0.2, -1, 3, 0.3%, 0, 4%, .
(49) Cc1c(C)c2cc(Cl)c(O)c(CN3CCCC(C)C3)c2oc1=O (stereo not given)
 : -4.5, -1, 3, -3.0%, -8, -6%, 1
(50) Cc1occc1C(=O)NCCc1cccc(Cl)c1
 : -2.7, -2, -12, 4.1%, -13, 12%, -31
(51) Cc1cccn2c(=O)c(/C=C(\C#N)S(=O)(=O)c3ccc(Cl)cc3)c(N3CCC(C(N)=O)CC3)nc12
 : -6.3, -19, -21, 1.2%, -13, 9%, 5
(52) CC1CCCN(c2ccc([N+](=O)[O-])cc2C(=O)c2ccccc2)C1 (stereo not given)
 : -3.4, -23, -17, 1.9%, -3, -9%, -9
(53) O=C(Nc1cccc(S(=O)(=O)NC2=NCCC2)c1)c1ccccc1F
 : -4.4, 2, 4, -0.1%, -3, ., .
(54) Cn1c(=O)[nH]c(=O)c2c1nc(N1CCN(Cc3ccccc3)CC1)n2CCSc1ncccn1
 : -5.0, 0, 4, -0.3%, -4, 4%, -2
(55) COc1ccc2c(c1)CCc1c-2n[nH]c1C(=O)NCCC(C)C
 : 2.7, -14, -9, -0.5%, -5, 9%, ?
